Rce1 inhib – yeast Rce1p protease inhibitors, primary screen, biochemical, fluorescence, cell-free homogeneous | yeast membranes, quenched prenylated peptide cleavage fluorescence | actives 0.27% (n = 290,000) | calls only | CAAX prenyl protease 2 (Saccharomyces cerevisiae (strain ATCC 204508 / S288c)), Q03530;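 active means fall in fluorescence gain of 50% or more versus controls, with final raw signal at or below 3038400; inconclusive means same 50% fall but final raw signal above 3038400; inactive means fall in fluorescence gain under 50%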;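 further: plate controls were neutral control wells for no effect and wells lacking membranes for full effect; tested at 10 µM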
Target sequence (Q03530 whole entry, looked up): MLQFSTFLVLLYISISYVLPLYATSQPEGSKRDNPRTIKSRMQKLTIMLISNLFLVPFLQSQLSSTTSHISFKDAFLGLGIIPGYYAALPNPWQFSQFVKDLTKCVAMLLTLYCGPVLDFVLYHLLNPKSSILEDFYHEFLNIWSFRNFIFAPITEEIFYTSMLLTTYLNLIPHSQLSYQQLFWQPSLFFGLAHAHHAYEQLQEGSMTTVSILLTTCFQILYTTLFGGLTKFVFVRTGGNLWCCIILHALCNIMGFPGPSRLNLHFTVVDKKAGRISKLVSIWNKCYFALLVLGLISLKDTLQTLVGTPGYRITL
PABP polyA inh – PABP poly(A) RNA binding inhibitors, primary screen, biochemical, fluorescence polarization, uHTS. inhibition, % at 35 µM. actives 1% (n = 290,000). AID 2014, 2009. Polyadenylate-binding protein 1 (Homo sapiens), P11940;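 active means 50% or more with normal probe brightness, or confirmed in later tests; inconclusive means above 50% with abnormal brightness, or retests that disagree; inactive means below 50% or failed in later tests; about a fifth of its hits are not listed in these tables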;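 further: calls also rest on retests at 20 µM and on dose response follow-up; controls were probe without protein and protein plus probe with vehicle; some compounds called inactive have numbers as strong as hits; many hits fall short of the cut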
Target sequence (P11940 whole entry, looked up): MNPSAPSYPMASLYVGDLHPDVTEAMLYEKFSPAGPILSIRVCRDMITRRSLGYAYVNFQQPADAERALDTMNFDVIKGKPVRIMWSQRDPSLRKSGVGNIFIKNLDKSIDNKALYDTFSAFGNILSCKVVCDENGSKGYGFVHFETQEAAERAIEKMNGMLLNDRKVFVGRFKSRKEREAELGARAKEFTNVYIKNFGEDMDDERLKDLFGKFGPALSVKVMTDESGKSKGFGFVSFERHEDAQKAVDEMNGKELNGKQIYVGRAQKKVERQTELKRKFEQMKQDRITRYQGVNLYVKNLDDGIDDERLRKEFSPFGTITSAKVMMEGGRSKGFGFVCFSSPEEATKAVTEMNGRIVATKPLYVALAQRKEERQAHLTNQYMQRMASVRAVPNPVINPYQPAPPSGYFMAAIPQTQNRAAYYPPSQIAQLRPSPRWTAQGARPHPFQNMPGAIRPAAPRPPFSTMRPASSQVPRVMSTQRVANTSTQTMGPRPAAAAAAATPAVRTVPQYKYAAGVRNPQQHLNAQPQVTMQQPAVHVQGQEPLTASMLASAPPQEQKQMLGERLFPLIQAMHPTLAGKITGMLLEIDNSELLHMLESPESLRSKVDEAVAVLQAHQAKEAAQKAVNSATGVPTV
eIF4H inh – human eIF4H binding inhibitors, primary screen, translation initiation inhibitor project, biochemical, uHTS, fluorescence polarization. Eukaryotic translation initiation factor 4H (Homo sapiens), Q15056. eIF4H fluorescence polarization binding assay. inhibition, % at 35 µM. actives 0.94% (n = 290,000);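 active means 50% or more with normal probe brightness, or confirmed in later tests; inconclusive means above 50% with abnormal brightness, or retests that disagree; inactive means below 50% or failed in later tests; about a fifth of its hits are not listed in these tables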;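 further: calls also rest on retests at 20 µM and on dose response follow-up; 0% = protein and probe with vehicle and 100% = probe without protein; strong numbers were not always called active; many hits fall short of the cut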
CSC inhib – cancer stem cell viability inhibitors, primary screen, luminescence; cancer stem cell-like cells viability; inhibition, % at 7.5 µM; actives 1.1% (n = 300,000); AID 2717, 2010;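 active means mean at 75% or more and at least half the replicates too; inconclusive means mean and replicates disagree; tested in HMLE shEcad cells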;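 further: 0% = median of negative and 100% = median of positive control wells; the first replicate is given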
MT1-MMP act inh – blockers of MT1-MMP proenzyme processing, primary screen, HT1080 RFP-PRO-GFP cells, GFP/RFP fluorescence. AID 651647, 2012. GFP/RFP ratio change, % at 20 µM. actives 0.061% (n = 360,000). Matrix metalloproteinase-14 (Homo sapiens), P50281. GFP/RFP ratio fluorescence, overnight; percent of plate control window, DMSO zero;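 active means GFP/RFP ratio change of at least 30% with cell ATP level not reduced by more than half and red fluorescence within 50% of control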; further: strong numbers were not always called active
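Assay system: HT1080 RFP-PRO-GFP cells | Dosing: 20 µM single dose, 1% DMSO | Incubation: Cells overnight before dosing, compound overnight, 37 °C, 5% CO2 | Evaluation: GFP/RFP fluorescence ratio | Control set: DMSO-only wells and HT1080 RFP-L50D-GFP cell wells as references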
Yeast UUG start – modulators of yeast start codon fidelity, primary screen, whole organism, S. cerevisiae, single point, plate reader; AID 602363, 2012; actives 0.13% (n = 350,000); activity score, % at 18.7 µM; S. cerevisiae UUG-firefly luciferase reporter, luminescence/redox ratio;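 active means replicate mean at a twofold rise or more, about +100% in these data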;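 further: firefly luciferase made from a UUG start codon reports start codon fidelity; reporter light over untreated wells divided by growth signal over untreated wells; some hits fall short of that in this replicate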
HIV Env fusion – inhibitors of HIV-1 Env-driven cell-cell fusion, primary screen, HeLa-JRFL effector, CEM21 target cells, luciferase; inhibition, % at 12.3 µM; actives 1.1% (n = 360,000); AID 651610, 2012;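 active means mean replicate inhibition score of at least 50 and every replicate individually at or above 50; inconclusive means only one of the two criteria met; inactive means mean below 50 and not all replicates reaching 50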;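 further: 0% = plate neutral controls and 100% = maraviroc near 300 nM; one replicate is shown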
MT1-MMP act inh RFP – second read-out of MT1-MMP act inh, no call of its own (marks repeat the call); RFP signal change, %; measured here: RFP expression control read;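 0 = vehicle wells; hits needed this value within 50% of zero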
Starred values were filed as active, the others as inactive; i = inactive; ? = inconclusive; / = not tested or not shown.

1	CC(=O)N1CCc2cc(S(=O)(=O)CCC(=O)N3CCN(c4cc(C)ccc4C)CC3)ccc21
2	COc1ccc(OC)c(N(CC(=O)NC2CCCCCC2)S(=O)(=O)c2ccc(C)cc2)c1
3	O=C(O)c1ccc(C=NN2CCCCCC2)cc1
4	COc1cc(C2NC(=O)NC(C)=C2C(=O)OC(C)(C)C)ccc1OCC(=O)O (stereo unspecified)
5	COC(=O)c1ccc(OC(=O)c2ccco2)cc1
6	O=C1/C(=C/c2cccnc2)SC(=S)N1CC1CCCO1 (stereo unspecified)
7	Cc1ccc(NC(=S)NCc2ccc3[nH]c4c(c3c2)CCCC4)cc1
8	COc1ccc(N(CC(=O)NC2CCCC2)C(=O)c2csnn2)cc1

Screen / compound no. | 1 | 2 | 3 | 4 | 5 | 6 | 7 | 8
PABP polyA inh | -5 | -12 | / | -2 | 1 | -12 | -6 | 2
MT1-MMP act inh RFP | -10 | -5 | 0 | 2 | -7 | 2 | 3 | -6
Rce1 inhib | i | / | / | i | / | i | i | i
eIF4H inh | 7 | -5 | / | -3 | 4 | -3 | 13 | 7
MT1-MMP act inh | -1 | -1 | 0 | -5 | -6 | 1 | 6 | -1
Yeast UUG start | -34 | 15 | -14 | -4 | -10 | / | -22 | -15
HIV Env fusion | 7 | 33 | -14 | -28 | -11 | -8 | 12 | -38
CSC inhib | -2 | 1 | / | -3 | -11 | 1 | / | 11

9	COC(=O)c1ccc(NC(=O)c2cc(Cl)ccc2OC)cc1
10	O=C(c1cccs1)N1CCN(c2nc3ccccc3s2)CC1
11	CN1CCCN(C(=O)c2cc(-c3ccc(Cl)c(Cl)c3Cl)nc3ccccc23)CC1
12	CC(C)(C)NC(=O)CC1C[C@H](C(=O)N2CCOCC2)[C@@]2(CCC3CCCC3)c3[nH]c4ccccc4c3CCN2C1=O (stereo partly specified)
13	Clc1ccc(CSc2nnc(-c3ccncc3)o2)cc1
14	COc1ccccc1OCCn1c(C(C)O)nc2ccccc21 (stereo unspecified)
15	CCc1cccc(NC(=O)CCNC(=O)Cn2ccc3ccccc3c2=O)c1
16	Cc1ccc(N(CC(=O)NC2CCCC2)C(=O)c2nsc(Cl)c2Cl)cc1

Screen / compound no. | 9 | 10 | 11 | 12 | 13 | 14 | 15 | 16
PABP polyA inh | -17 | 4 | 7 | / | -2 | -3 | 8 | -5
MT1-MMP act inh RFP | -4 | -12 | 6 | -6 | -13 | 1 | -5 | 4
Rce1 inhib | i | i | i | / | i | i | i | /
eIF4H inh | -8 | -3 | -6 | / | -3 | 4 | 5 | -1
MT1-MMP act inh | -1 | 1 | 1 | -8 | -10 | 1 | -6 | 2
Yeast UUG start | -16 | -18 | -10 | -4 | -15 | -7 | -8 | 0
HIV Env fusion | 8 | -13 | 9 | -258 | 63* | -37 | 5 | 2
CSC inhib | / | -4 | 20 | 0 | 10 | / | -13 | -11

17	O=C(CCN1C(=O)c2ccccc2C1=O)NCc1cccc(Cl)c1
18	Cc1c(C=N)c(O)n(C)c(=O)c1C#N
19	O=C(O)c1cccnc1SC1CC(=O)N(c2ccccc2)C1=O (stereo unspecified)
20	CC1=C(C(=O)O)N2C(=O)C(NC(=O)c3ccn(C)n3)C2SC1 (stereo unspecified)
21	COC(=O)CCN(c1ccccc1)S(=O)(=O)c1cc(-c2cc(C)no2)ccc1C
22	CCCCN(C(=O)c1cnc(C)cn1)c1c(N)n(CCC)c(=O)[nH]c1=O
23	COC(=O)[C@@]12CCCCN1[C@H](c1ccc(-c3ccc(OC)cc3)c(OC)c1)[C@@H]1C(=O)N(C)C(=O)[C@@H]12
24	CCOc1ccccc1-n1c(SCC(=O)NC(C)CC)nnc1-c1ccoc1C (stereo unspecified)

Screen / compound no. | 17 | 18 | 19 | 20 | 21 | 22 | 23 | 24
PABP polyA inh | -4 | -10 | -13 | -5 | -5 | / | / | -4
MT1-MMP act inh RFP | 2 | -6 | 2 | 2 | -5 | 2 | -9 | 11
Rce1 inhib | i | i | i | i | i | / | / | i
eIF4H inh | -16 | 13 | 4 | 0 | -4 | / | / | 1
MT1-MMP act inh | 1 | 0 | 0 | -2 | -4 | 1 | -9 | 1
Yeast UUG start | / | -14 | -8 | -7 | 2 | -7 | -7 | -1
HIV Env fusion | 13 | 5 | 11 | / | 10 | 0 | -1 | -82
CSC inhib | -17 | 9 | / | 19 | 2 | / | 0 | /

25	N#CC1C(=O)NC(N2CCN(c3ccccc3)CC2)=NC12CCCCC2 (stereo unspecified)
26	COc1ccc(CNC(=O)c2ccc(Br)cc2)cc1
27	COc1ccc(-c2nnc(SCC(=O)Nc3cccc(Cl)c3)o2)cc1
28	Cc1nc(NC(=S)NC(=O)COc2ccccc2Cl)ccc1Br
29	COc1cc([C@@H]2CC=C(C(=O)O)[C@H](c3ccc(F)cc3)N2S(=O)(=O)c2ccc(C)cc2)cc(OC)c1OC
30	CCN1CCN(C2=CC3=CC(=C(C#N)C#N)CCC3CC2)CC1 (stereo unspecified)
31	Cc1sc(N/N=C/c2cccnc2)nc1-c1ccc(Cl)cc1
32	O=C(Nc1ccc(NC(=O)C2CC2)cn1)c1ccccc1Cl
33	O=C(Cn1cnc2ccc(Cl)cc2c1=O)NC1CCS(=O)(=O)C1 (stereo unspecified)
34	CCCS(=O)(=O)c1nc(S(=O)(=O)c2ccc(C)cc2)c(NCCCN2CCOCC2)s1
35	CCc1nnc(NC(=O)CCC(=O)N2CCN(c3cc(Cl)ccc3C)CC2)s1

Screen / compound no. | 25 | 26 | 27 | 28 | 29 | 30 | 31 | 32 | 33 | 34 | 35
PABP polyA inh | -2 | -1 | 8 | -11 | / | 12 | 7 | 21 | / | 6 | 13
MT1-MMP act inh RFP | 2 | / | 1 | -1 | 0 | 9 | -3 | 7 | 3 | 3 | -2
Rce1 inhib | i | i | i | i | / | / | i | i | / | i | i
eIF4H inh | -3 | -2 | -15 | -8 | / | ? | 0 | 4 | / | 5 | -15
MT1-MMP act inh | 0 | / | 0 | 1 | 5 | -97 | -2 | 8 | -3 | 0 | 5
Yeast UUG start | 0 | / | -22 | / | -5 | / | -16 | -14 | -10 | -3 | 11
HIV Env fusion | -64 | -15 | -236 | -29 | -9 | / | -147 | -33 | 7 | / | 5
CSC inhib | -5 | -2 | 1 | 3 | -1 | / | 12 | -1 | / | -19 | 2

Exported in markdown: 10 of the compounds above.
| No. | mol | PABP polyA inh | MT1-MMP act inh RFP | Rce1 inhib | eIF4H inh | MT1-MMP act inh | Yeast UUG start | HIV Env fusion | CSC inhib |
| --- | --- | --- | --- | --- | --- | --- | --- | --- | --- |
| 23 | COC(=O)[C@@]12CCCCN1[C@H](c1ccc(-c3ccc(OC)cc3)c(OC)c1)[C@@H]1C(=O)N(C)C(=O)[C@@H]12 | / | -9 | / | / | -9 | -7 | -1 | 0 |
| 24 | CCOc1ccccc1-n1c(SCC(=O)NC(C)CC)nnc1-c1ccoc1C (stereo unspecified) | -4 | 11 | i | 1 | 1 | -1 | -82 | / |
| 25 | N#CC1C(=O)NC(N2CCN(c3ccccc3)CC2)=NC12CCCCC2 (stereo unspecified) | -2 | 2 | i | -3 | 0 | 0 | -64 | -5 |
| 26 | COc1ccc(CNC(=O)c2ccc(Br)cc2)cc1 | -1 | / | i | -2 | / | / | -15 | -2 |
| 27 | COc1ccc(-c2nnc(SCC(=O)Nc3cccc(Cl)c3)o2)cc1 | 8 | 1 | i | -15 | 0 | -22 | -236 | 1 |
| 28 | Cc1nc(NC(=S)NC(=O)COc2ccccc2Cl)ccc1Br | -11 | -1 | i | -8 | 1 | / | -29 | 3 |
| 29 | COc1cc([C@@H]2CC=C(C(=O)O)[C@H](c3ccc(F)cc3)N2S(=O)(=O)c2ccc(C)cc2)cc(OC)c1OC | / | 0 | / | / | 5 | -5 | -9 | -1 |
| 30 | CCN1CCN(C2=CC3=CC(=C(C#N)C#N)CCC3CC2)CC1 (stereo unspecified) | 12 | 9 | / | ? | -97 | / | / | / |
| 31 | Cc1sc(N/N=C/c2cccnc2)nc1-c1ccc(Cl)cc1 | 7 | -3 | i | 0 | -2 | -16 | -147 | 12 |
| 32 | O=C(Nc1ccc(NC(=O)C2CC2)cn1)c1ccccc1Cl | 21 | 7 | i | 4 | 8 | -14 | -33 | -1 |

3 structures from above, ordered by SMILES length, falling:
34	CCCS(=O)(=O)c1nc(S(=O)(=O)c2ccc(C)cc2)c(NCCCN2CCOCC2)s1
35	CCc1nnc(NC(=O)CCC(=O)N2CCN(c3cc(Cl)ccc3C)CC2)s1
27	COc1ccc(-c2nnc(SCC(=O)Nc3cccc(Cl)c3)o2)cc1

Screen / compound no. | 34 | 35 | 27
PABP polyA inh | 6 | 13 | 8
MT1-MMP act inh RFP | 3 | -2 | 1
Rce1 inhib | i | i | i
eIF4H inh | 5 | -15 | -15
MT1-MMP act inh | 0 | 5 | 0
Yeast UUG start | -3 | 11 | -22
HIV Env fusion | / | 5 | -236
CSC inhib | -19 | 2 | 1

Bioassay records (PubChem BioAssay)
